Screening results as filed in PubChem BioAssay.
VACV Venus inh: inhibitors of vaccinia virus (Venus reporter). 330,000 tested, 0.46% active. AID 720580. Vaccinia virus Venus reporter expression, fluorescence. Potency, µM (titrated, usually from 36.5 µM), inactives show top-dose activity change, negative = inhibition, usual class: inhibitors; active means well fitted inhibition curve with a large enough effect; inconclusive means small, poorly fitted or top-dose-only effect; inactive means no such curve, though single readings can be large or run the other way; tested in A549 cells; also: nearly all actives have a fitted effect of over 30% in size; inactives centre near -10
VACV mCherry inh: vaccinia inhibition (mCherry reporter); Vaccinia virus mCherry reporter infection, fluorescence; about a quarter of the inactives have no number; Potency, µM (series often up to 36.5 µM), for the others: top-dose activity change, negative = inhibition, usual class: inhibitors; 310,000 tested, 0.63% active; AID 720579; active = well fitted inhibition curve with a large enough effect; inconclusive = small, poorly fitted or top-dose-only effect; inactive = no such curve, though single readings can be large or run the other way; tested in A549 cells; also: nearly all actives have a fitted effect of over 35% in size; inactives centre near -10
* hit, by the source's call; i = inactive; ? = inconclusive; nt = no result given; & = joins results of further samples; [ ] = another dose, or the depositor's remark. % is scaled to controls: 0 for no effect and ±100 for the full control effect; potency is read from the fitted curve at half-maximal effect. Compounds as they come (roughly 0.82% active in at least one column).

SMILES	VACV Venus inh	VACV mCherry inh
CC1=C(C(=O)N(C(C)C)C(C)C)CC(CC(=O)NCCc2ccccn2)C(=O)N1Cc1ccc(C(C)(C)C)cc1 (stereo unspecified)	-6%	14%
Cc1ccc(S(=O)(=O)NNC2=NS(=O)(=O)c3ccccc32)c(C)c1	-4%	-24%
c1nc2n(n1)C1=C(CCCC1)C1(CCCCC1)N2	-9%	i
NS(=O)(=O)c1ccc(CCNC(=O)c2ccc(NC3=NC4CS(=O)(=O)CC4S3)cc2)cc1 (stereo unspecified)	-2%	-11%
COc1cc(OC)c2c(-c3cccc(-c4sccc4C(C)=O)c3)cc(=O)oc2c1	?	?
CC(=O)N1CCN(Cc2nc3ccc(Cl)cc3n2CCO)CC1	-6%	-11%
CCOCC(=O)Nc1ccc(S(=O)(=O)NCCc2ccccc2)cc1	-17%	nt
O=C(CCCc1nc2ccccc2s1)NCc1ccccc1F	13%	-5%
O=C(c1ccc(F)cc1)N1CCN2C(=O)c3ccccc3C12c1ccccc1 (stereo unspecified)	-5%	-12%
COc1cc(C)c(Br)cc1S(=O)(=O)N1CCOCC1	-9%	nt
CC(=O)N1c2ccc(S(=O)(=O)N(C)C3CCCCC3)cc2CC1C (stereo unspecified)	11%[7.34 µM]	-2%[7.34 µM]
O=C(Nc1ccc(Cl)c(-c2nc3ccccc3o2)c1)c1cccc2c(Cl)cccc12	-5%	-6%
Nn1c(SCC(=O)Nc2ccccc2)nnc1C1CCCCC1	-11%	-18%
COCCCNc1ncnc2c1cnn2-c1ccc(C)cc1C	-17%	i
CCc1ccc(C2=NN(CCC(=O)NC(C)CCc3ccccc3)C(=O)CC2)cc1 (stereo unspecified)	?	-20%

Five entries from above, sorted by molar mass, smallest number first:
SMILES	VACV Venus inh	VACV mCherry inh
CC(=O)N1CCN(Cc2nc3ccc(Cl)cc3n2CCO)CC1	-6%	-11%
COc1cc(C)c(Br)cc1S(=O)(=O)N1CCOCC1	-9%	nt
CCOCC(=O)Nc1ccc(S(=O)(=O)NCCc2ccccc2)cc1	-17%	nt
Cc1ccc(S(=O)(=O)NNC2=NS(=O)(=O)c3ccccc32)c(C)c1	-4%	-24%
CCc1ccc(C2=NN(CCC(=O)NC(C)CCc3ccccc3)C(=O)CC2)cc1 (stereo unspecified)	?	-20%

Additional records
SMILES	VACV Venus inh	VACV mCherry inh
COc1cc(C)ccc1OCCOc1ccccc1Cl	-22%	nt
COc1ccc2c(c1)cc(C(=O)N[C@@H](CCSC)C(=O)N1CCC[C@H]1C(=O)O)n2C	4%	-2%
COc1ccc(CCN(C(=O)c2cccc(F)c2)C2CC(=O)N(c3ccccc3)C2=O)cc1 (stereo unspecified)	-12%	i
Cc1ccc(C2c3c(oc4ccccc4c3=O)C(=O)N2c2nncs2)cc1 (stereo unspecified)	-7%	-15%
O=C(Nc1cc(=O)[nH]c2ncnn12)c1ccccc1	-2%	-14%
NC(=O)C1CCN(C(=O)c2ccc3ncsc3c2)CC1	-11%	-7%
COc1ccccc1CC(=O)N1CCN(CCc2ccccc2)CC1	6%	-5%
CC(C)CN(C(=O)COC(=O)c1ccc(Cl)c(N)c1)c1c(N)n(Cc2ccccc2)c(=O)[nH]c1=O	-14%	i
Cc1ccnc(NCc2cc(C)ccc2O)c1	-13%	-29%
CCC(=O)Nc1cccc(OCc2cc(=O)n3cc(C)ccc3n2)c1	-6%[7.34 µM]	-9%[7.34 µM]
C=CCc1cccc2cc(C(=O)NNC(=O)CC#N)c(=O)oc12	-8%	-2%
CCOC(=O)C1=C(C)NC(=O)NC1c1c(OC)ccc2ccccc12 (stereo unspecified)	-4%	-16%
COc1ccc(CN(Cc2ccco2)c2cnc(S(C)(=O)=O)nc2C(=O)Nc2ccc(C)c(Cl)c2)cc1	-9%	-16%
Nc1c(S(=O)(=O)c2cccs2)c2nc3ccccc3nc2n1Cc1cccs1	-15%	nt
Cc1ccc(/C=N/NS(=O)(=O)c2ccccc2)o1	2%	i
Cc1cccc(N2CCN(C(=O)CCC(=O)N3CC(C)Oc4ccc(C)cc43)CC2C)c1 (stereo unspecified)	?	?
CCOC(=O)c1cc(C(=O)OCC)c(=O)[nH]c1C	-3%	i
N#Cc1ccc(Cn2ccnc2C(=O)Nc2ccccc2)cc1	-1%	-1%
CN(C)c1ccc(CNC(=O)/C=C/[C@H]2O[C@@H](n3ccc(=O)[nH]c3=O)[C@H](O)[C@@H]2O)cc1	-4%	1%
Cc1ccc(S(=O)(=O)N2C[C@]3(O)C[C@@H]4C(=O)N(c5ccccc5)C(=O)[C@@H]4C[C@]3(OC(=O)NCC3CCCCC3)C2)cc1	-18%	-5%
COCCn1c(=S)[nH]c2sc3c(c2c1=O)CCC(C)C3 (stereo unspecified)	-19%	-11%
Cc1ccc(C(=O)Nc2ccc(C(=O)N/N=C/c3ccccn3)cc2)cc1	4%	-12%
S=C(NC12CC3CC(CC(C3)C1)C2)N1CCCC1	-1%	-2%
CSCCC(c1nc2ccccc2[nH]1)n1c(=O)c(-c2ccco2)nc2ccccc21 (stereo unspecified)	18%	?
Cc1ccccc1CNC(=O)CCSCc1cnn(-c2ccccc2)c1-n1cccc1	-14%	-5%
CCC(CC)C(=O)Nc1ccc(C)cc1O	-7%	-29%
CC(C)OC(=O)c1cc(C(=O)c2cc(Cl)ccc2O)coc1=N	5%	-4%
COc1ccc(CCNC(=O)CCc2c(C)nc3cc(-c4ccc(Cl)cc4)nn3c2C)c(OC)c1	-14%	-9%
COc1ccc(OC)c(N(CC(=O)NCCSCc2ccc(C)cc2)S(C)(=O)=O)c1	-12%	-8%
CCOc1ccc(C2=CSC3=NCCN23)cc1[N+](=O)[O-]	-7%	-14%

Entries shown so far that have a cyano group, in the order listed:
SMILES	VACV Venus inh	VACV mCherry inh
C=CCc1cccc2cc(C(=O)NNC(=O)CC#N)c(=O)oc12	-8%	-2%
N#Cc1ccc(Cn2ccnc2C(=O)Nc2ccccc2)cc1	-1%	-1%

New compounds follow:
SMILES	VACV Venus inh	VACV mCherry inh
COc1ccc(NC(=O)c2ccc3ccccc3c2)cc1NS(=O)(=O)c1ccc(F)cc1	-12%	-27%
Cc1c(C(=O)NC(C)c2ccccn2)oc2c(Cl)cccc12 (stereo unspecified)	-20%	-2%
CCC(Oc1ccccc1)C(=O)N(C)CC(=O)N(CC(C)C)c1c(N)n(CC(C)C)c(=O)[nH]c1=O (stereo unspecified)	-7%	i
Cc1ccc(N2CCN(C(C(=O)Nc3c(C)cccc3C)c3cccc(F)c3)CC2)cc1 (stereo unspecified)	-10%	-15%
COC1(C)CCC2OC2(C)CCC2C1CC2(C)C (stereo unspecified)	8%	7%
COc1ccccc1NC(=S)N1CCC(NC(=O)C23CC4CC(CC(C4)C2)C3)CC1	-15%	-16%
Cc1ccc(NC(=O)CN(C)C(=O)/C=C/c2cccs2)cc1	-8%	i
O=C(NCCc1ccc(C(F)(F)F)cc1)C1CCC(=O)N(CCCc2ccccc2)C1 (stereo unspecified)	0%[7.34 µM]	11%[7.34 µM]
Cc1ccc(NP(=O)(Oc2ccccc2F)Oc2ccccc2F)cc1C	?	-30%
COc1ccc(NC(C)=O)cc1NC(=O)C1(c2cccs2)CCOCC1	-19%	-12%
O=C1CCN(c2ncccc2[N+](=O)[O-])CC1	-2%	-2%
Cc1ccc(-n2nnnc2SCC(=O)NC2CCS(=O)(=O)C2)c(C)c1 (stereo unspecified)	2%	0%
O=c1c(-c2ccco2)nc2ccccc2n1C(CCc1ccccc1)c1nc2ccccc2[nH]1 (stereo unspecified)	11%	i
O=C(O)CSc1cc(NS(=O)(=O)c2ccc(Cl)cc2)c2ccccc2c1O	?	14µM*
C[C@@H]1CN([C@@H](C)CO)C(=O)CCCn2nncc2CO[C@H]1CN(C)C(=O)c1ccccc1	-12%	i
O=C(NCCCO)/C(=C\C=C\c1ccccc1)NC(=O)c1ccccc1Cl	-2%	-19%
O=C(c1cnc(Cl)c(Cl)c1)N1CCN(S(=O)(=O)c2ccc3ccccc3c2)CC1	-12%	i
CSCCC(NC(=O)c1ccccc1Cl)C(=O)N1CCN(c2ccccn2)CC1 (stereo unspecified)	-8%	i
CCn1ccc2c(OCC(=O)Nc3ccc(OC)cc3OC)cccc2c1=O	-14%	-15%
CC(=O)Nc1ccc(-c2csc(N/N=C(/C)c3ccccc3)n2)cc1	8%	-58%
COc1ccc(CCNC(=O)C2CCCN2C(=O)Nc2cccc(C(C)=O)c2)cc1OC (stereo unspecified)	-5%	-6%
CN(C)CCCNc1ccc(-c2cc(Nc3cccc(Cl)c3)ncn2)cn1	?	-13%
CN(C)CCCN(C(=O)COc1ccc(Cl)cc1)c1nc2ccc(F)cc2s1	-7%	i
CCc1nnc(NC(=O)C(C)N2C(=O)C3C4C=CC(C4)C3C2=O)s1 (stereo unspecified)	-5%	i
CCNC(=O)C1(C)CCCN(C(=O)c2ccc(C(F)(F)F)nc2C)C1 (stereo unspecified)	-10%	5%
COc1ccc(CC(=O)n2[nH]c(=O)cc(C)c2=O)cc1OC	-13%	i
O=C(COc1ccccc1Br)NC(=O)NC1CCCC1	-9%	-7%
CS(=O)(=O)N(Cc1ccc(Cl)cc1)c1ccc(C(=O)NCc2ccccn2)cc1	-10%	-15%
CCCCCn1c(CN2CCN(CCO)CC2)nc2c1c(=O)n(C)c(=O)n2C	-4%	-13%
CCCc1[nH][nH]c(=O)c1C(c1ccccc1)C(C#N)C#N (stereo unspecified)	-19%	-17%
O=C(NC1CC1)C1=C[C@@H](c2c[nH]c3ccccc23)C[C@@H](OCc2ccc(CO)cc2)O1	-13%	-6%
O=C(NC1CC(=O)N(c2ccc3c(c2)OCCO3)C1)N1CCC(O)CC1 (stereo unspecified)	-8%	-1%
COC(C[C@H](O)CC(=O)[C@@H](C)OCc1ccccc1)OC	-16%	i
CCOC(=O)CSc1n[nH]c(NC(=O)CC)n1	5%	i
CCCCN(CC)CCNC(=O)Cn1cnc2sc(C)c(S(=O)(=O)N3CCN(c4ccccc4OC)CC3)c2c1=O	-17%	-12%
COc1ccc(C(=O)C2(C)N(O)C(C)C(c3cccs3)=[N+]2[O-])cc1 (stereo unspecified)	-8%	-13%
CC(=O)c1ccc(OCC(=O)NC(=O)NC2CCCC2)cc1	-3%	-3%
C[C@H](CO)N1C[C@H](C)[C@@H](CN(C)C(=O)CN2CCOCC2)Oc2cc(Br)ccc2S1(=O)=O	0%	i
Cc1ccc(NC(=O)Cn2nnc(C(=O)NCc3ccco3)c2N)c(C)c1	0%[7.34 µM]	i[7.34 µM]
O=S(=O)(Nc1ccc(S(=O)(=O)N2CCCC2)cc1)c1ccc(F)cc1F	-11%	i
CCn1c(-c2nn(-c3ccccc3)ccc2=O)n[nH]c1=S	-12%	-2%
CC(=O)NCC(=O)N(C)C(C(=O)Nc1ccc(C(C)C)cc1)c1ccccc1 (stereo unspecified)	-13%	-20%
O=[N+]([O-])c1cccc(N(CC(O)CN2CCCC2)S(=O)(=O)c2ccccc2)c1 (stereo unspecified)	-13%	?
CCOc1cc(S(=O)(=O)NCCN2CCOCC2)c(C)cc1C	-9%	nt
CNc1ncnc(Sc2nc(N)nc3nc[nH]c23)c1[N+](=O)[O-]	?	5µM*

Two of the compounds above, comma-delimited:
compound,VACV Venus inh,VACV mCherry inh
O=S(=O)(Nc1ccc(S(=O)(=O)N2CCCC2)cc1)c1ccc(F)cc1F,-11%,i
CCn1c(-c2nn(-c3ccccc3)ccc2=O)n[nH]c1=S,-12%,-2%

(cont.)
SMILES	VACV Venus inh	VACV mCherry inh
N#C/C(=C\c1ccc[nH]1)C(=O)NC1CC1	-5%	-9%
O=S(=O)(Cc1ccccc1)Oc1ccccc1	-10%	i
COc1ccc(CNC(=O)c2cc3c(s2)CN(Cc2ccccc2)C3)cc1	-3%	-7%
COc1cccc(N2[C@@H](CC(C)=O)c3ccccc3S2(=O)=O)c1	-1%&-19%	-25%
CC(OC(=O)CNC(=O)c1ccccc1F)C(=O)Nc1nc(-c2ccccc2)cs1 (stereo unspecified)	-6%	-5%
CCCCCCCCCC[n+]1ccc(/C=C/c2c(C)[nH]c3ccccc23)c2ccccc21	i	nt
COc1cc([N+](=O)[O-])cc2cc(C(=O)N3CCCC3)c(=O)oc12	-21%	-22%
CC(C)(C)c1ccc2cc(F)cc(F)c2n1	2%	i
Cc1c(NC(=O)c2ccc3c(c2)OCO3)c(=O)n(-c2ccccc2)n1C	-2%	-19%
CC(C)c1ccc(-c2noc(C3CCCN(S(C)(=O)=O)C3)n2)cc1 (stereo unspecified)	-20%	-24%
COc1cc(/C=C2/C(=O)NN(c3cccc(C)c3)C2=O)cc([N+](=O)[O-])c1O	-7%	i
CCN(CC)Cc1cc(C(C)=O)ccc1OCC(C)C	-9%	-11%
Cn1c(N)c(N=Cc2ccccc2)c(=O)n(C)c1=O	5%	i

Given as a markdown table: entries from further up
| structure | VACV Venus inh | VACV mCherry inh |
| --- | --- | --- |
| COc1ccc(CNC(=O)c2cc3c(s2)CN(Cc2ccccc2)C3)cc1 | -3% | -7% |
| COc1cccc(N2[C@@H](CC(C)=O)c3ccccc3S2(=O)=O)c1 | -1%&-19% | -25% |
